High-throughput results as filed in PubChem BioAssay.
PrP 5UTR inh: inhibition of PrP 5' UTR reporter expression. cell-based PrP 5' UTR mRNA reporter, plate reader. inhibition, % (test concentration not listed). actives 0.35% (n = 340,000). AID 488862;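 active means every replicate at 50% or more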;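 further: 0 = median of the neutral control wells; tested in H4 reporter cells; numbers are from one replicate; inactives centre near -14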
RN4220 kill: kills Staphylococcus aureus RN4220; S. aureus RN4220 growth, OD600, 16 h; inhibition, % (no concentration beside the values); actives 0.33% (n = 330,000); AID 1259311;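 active means z-score of -3 or lower and OD600 up to 0.18 on both plates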;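 further: plate controls were untreated cells for no effect and reference antibiotic for full effect; stock transfer was 100 nL into about 80 µL; one replicate is shown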
Mtb hypoxia rep: Mtb hypoxia fluorescent reporter inhibition; AID 1159583; actives 0.1% (n = 300,000); fluorescence inhibition, % (no concentration beside the values); M. tuberculosis hypoxia-regulated fluorescent reporter, fluorescence;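 active means 35 to 45% if threefold the growth effect, above 45% if 1.5-fold the growth effect; inactive means the rest, general growth blockers included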;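 further: wells of about 50 µL received 100 nL stock; 0% = vehicle wells and 100% = reference inhibitor wells; whole bacteria with a GFP reporter of the hypoxia response; strong numbers were not always called active; many hits fall short of the cut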
ugtP null kill: kills S. aureus RN4220 lacking UgtP; S. aureus RN4220 ugtP deletion, OD600 growth, 16 h; some inactives read as strong as hits; growth inhibition, % (concentration not given with the values); actives 0.54% (n = 330,000); AID 1259309;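 active means z-score under -3 and OD600 up to 0.15 on both plates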;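 further: plate controls were untreated wells for no effect and antibiotic for full effect; wells of about 80 µL received 100 nL stock; the first replicate is given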
BJeLR lethal: BJeLR cell viability loss; inhibition, % (concentration not given with the values); AID 1554; actives 0.17% (n = 300,000); BJeLR (HRASV12) viability, CellTiter-Glo ATP luminescence, 48 h; reference of the scale not given here;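 active means replicate mean above 50%; inconclusive means above 50% but judged a plate artefact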;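 further: 50 nL library stock added to about 25 µL; numbers are from one replicate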
Bead autofluor: flagged as autofluorescent in microsphere protease counterscreen; actives 3.1% (n = 360,000); AID 624483; fluorescence intensity (test concentration not listed); compound autofluorescence counterscreen, microsphere flow cytometry; active compounds read high;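 active means at least 3 SD above the mean of all compounds, about 16000 in these data; inconclusive means too few beads counted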;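 further: 100 nL of 1 mM stock went into each well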
Mtb hypoxia rep growth: also measured in Mtb hypoxia rep; calls as there; growth inhibition, %; measured here: M. tuberculosis growth (absorbance);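 0% = vehicle and 100% = reference antibiotic; read after six days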
* hit, by the source's call; ? = inconclusive; · = not tested or not shown.

SMILES	PrP 5UTR inh	RN4220 kill	Mtb hypoxia rep	Mtb hypoxia rep growth	ugtP null kill	BJeLR lethal	Bead autofluor
CC(NS(=O)(=O)c1ccc(OCC(=O)N2CCOCC2)cc1)c1ccccc1 (configuration not stated)	-12	-0.2	·	·	-5	·	3465
O=C(c1ccc(Cn2c(=S)[nH]c3cc4c(cc3c2=O)OCO4)cc1)N1CCN(c2ncccn2)CC1	·	3.0	-3	2	1	-13	·
Cc1ccc(S(=O)(=O)N2CCC(C(=O)OC3CCOC3=O)CC2)cc1C (configuration not stated)	-3	1.8	4	0	3	0	?
O=C(C1CCCO1)N1CCN(C(=S)Nc2ccccc2C(F)(F)F)CC1 (configuration not stated)	-2	2.0	4	9	1	-1	1985
O=C(NC1CCCCC1)N1CCN(c2ccccc2Cl)CC1	-4	-0.8	4	8	3	6	?
CCOc1cc(O)c(-c2[nH]ncc2-c2nc(C)cs2)cc1CC	-21	-15	0	-4	2	3	4124
CC(C)(C)OC(=O)C(C)(C)ON=C(C(=O)O)c1csc(N)n1	·	0.4	7	12	6	·	·
N=C1C(c2nc3ccccc3s2)=C(O)CN1Cc1ccccc1	-64	-1.1	·	·	-1	8	4678
O=[N+]([O-])c1ccc2c(OCc3nnc(-c4ccccc4Br)o3)ncnc2c1	-12	-2.7	10	36	5	-4	4797
Cc1ccc(S(=O)(=O)CCC(=O)NCCc2ccc(Cl)cc2)cc1	-13	2.9	-6	-8	4	1	3003

Continued, overlapping the part above by 2 compounds.
SMILES	PrP 5UTR inh	RN4220 kill	Mtb hypoxia rep	Mtb hypoxia rep growth	ugtP null kill	BJeLR lethal	Bead autofluor
O=[N+]([O-])c1ccc2c(OCc3nnc(-c4ccccc4Br)o3)ncnc2c1	-12	-2.7	10	36	5	-4	4797
Cc1ccc(S(=O)(=O)CCC(=O)NCCc2ccc(Cl)cc2)cc1	-13	2.9	-6	-8	4	1	3003
O=c1cc(N2CCCCC2)c(-c2ccccc2)nn1Cc1c(Cl)cccc1Cl	-12	-2.3	·	·	1	-3	4395
COC(=O)C1=C(c2ccc(-c3ccccc3)c(F)c2)CC2CCC1N2C(=O)NCC1CC1 (configuration not stated)	·	-0.3	-11	6	-8	·	·
COc1cc(C(=O)OC(C)CN2CCCC2)cc(OC)c1OC (configuration not stated)	-10	0.0	·	·	0	-6	4660
O=S(=O)(c1ccc(NCc2ccccc2)cc1)N1CCOCC1	-24	0.6	12	-2	3	-10	6244
O=C(O)COc1ccc(-c2nccc(-c3ccccn3)n2)cc1	28	·	·	·	·	-4	4136
Cc1ccc(S(=O)(=O)/N=C(/Nc2ccc3[nH]c(=O)[nH]c3c2)c2ccc(F)cc2)cc1	-11	-0.6	11	6	4	-2	2561
CCNC(=S)N1CCC(C(N)=O)CC1	-21	1.3	10	14	7	-6	6170
COc1ccc(NC(=O)[C@H](C)NC(N)=O)cc1S(=O)(=O)Nc1cc(C)ccc1Br	-11	3.7	8	-4	4	0	5475
CCOC(=O)C1=C(C)OC(N)=C(C#N)C12C(=O)N(C)c1ccccc12 (configuration not stated)	-5	91*	9	5	74	-4	2706
CCOC(=O)c1ccc(N2C(=O)CC(Sc3ncccn3)C2=O)cc1 (configuration not stated)	-28	8.1	3	-1	6	-19	3427
CCOC(=O)CSc1nc2c(c(=O)[nH]c(=O)n2C)n1CCCc1ccccc1	-23	2.0	-9	1	1	-1	22767*
FC(F)(F)Oc1ccc(-c2cn3cccnc3n2)cc1	-94	5.1	2	-7	7	11	4522
COc1ccc(C(=O)NCCC2=CCCCC2)cc1OC	-26	-0.7	·	·	-4	0	2905
COc1ccc(-c2noc(C3CCCN(C(=O)c4cccs4)C3)n2)cc1 (configuration not stated)	·	5.8	13	2	10	-11	11189
O=C(CC1Sc2ccccc2NC1=O)Nc1cccnc1 (configuration not stated)	-21	·	·	·	·	8	2373
COc1ccc(CN2CCCCC2C(=O)Nc2ccc(OC)c(OC)c2)cc1OC (configuration not stated)	-3	2.5	10	1	7	1	11398
O=P1(Oc2ccccc2)C[C@@H](O)[C@@H](O)[C@H](COCc2ccccc2)O1 (some centres not stated)	-2	-11	4	6	-7	-16	2783
CCC1CCCCN1CCCNC(=O)c1ccc(CS(=O)(=O)c2ccccc2C)o1 (configuration not stated)	-14	0.6	13	3	1	6	6373
O=C(c1ccccc1NS(=O)(=O)c1ccc(F)cc1)N1CCCCC1	-12	1.9	4	11	-3	9	5878
Cc1ccc(S(=O)(=O)Nc2ccc(S(=O)(=O)Nc3nccs3)cc2)cc1C	-18	11	21	20	10	·	3831
O=C(CN1C(=O)NC2(CCOc3ccccc32)C1=O)NCC(F)(F)F (configuration not stated)	-10	-0.3	2	-2	7	-2	3918
CCc1cccc(NC(=O)COC(=O)C2CCN(c3ccc(C(F)(F)F)cn3)CC2)c1	-14	-5.0	8	-2	2	4	·
CC(=O)Nc1cc[n+](C(C)C(=O)c2ccccc2)cc1 (configuration not stated)	2	0.5	6	2	4	-9	3289
N#CCC(=O)N/N=C/c1ccc(Sc2nc3ccccc3s2)o1	-6	·	·	·	·	-15	6314
O=C(CN(Cc1ccco1)S(=O)(=O)c1ccccc1)N/N=C/c1ccccc1C(=O)O	-11	·	·	·	·	1	3562
O=C(NN=Cc1cccc(Cl)c1Cl)Nc1ccccc1	·	1.0	2	5	-4	·	·
CCC(C(=O)NC(C)CCc1ccccc1)n1nc(C)n2c(cc3occc32)c1=O (configuration not stated)	-43	3.0	13	11	-5	4	2536
O/C(=C\c1nc2ccccc2nc1/C=C(\O)c1ccccc1)c1ccccc1	-51	34	5	-2	27	10	4056
CCN(CC)CCNC(=O)c1[nH]c2ccc(OCc3ccccc3)cc2c1C	-14	-12	14	-3	-19	14	1971
CC(=O)n1c(-c2ccccc2)c(CO)c2ccccc21	-15	-9.1	17	8	-4	-6	4114
CC/C(=N\Nc1ccc([N+](=O)[O-])cc1)c1ccccc1	-6	·	·	·	·	-7	2428
Cc1cc(=O)n2nc(N3CCC(C(=O)NCc4ccco4)CC3)sc2n1	-19	1.5	4	5	9	-7	4401
CCOC(=O)N/N=C\c1ccc([N+](=O)[O-])s1	-22	·	·	·	·	7	2643
Cc1csc(N(C)C(=O)CSc2nnc(COc3cccc4ccccc34)o2)n1	-9	2.0	4	-3	-28	-10	9938
CC(=O)Nc1cccc(OCC(=O)NS(=O)(=O)c2ccc(C)cc2)c1	-18	-0.4	0	13	-4	0	23647*
N#Cc1ccc(Oc2nc(Nc3ccc(F)cc3)nc(N3CCCC3)n2)cc1	-15	2.0	4	0	-13	3	11171
CCCN1C(C)C(C(=O)OCC)=CN(Cc2cccc(I)c2)S1(=O)=O (configuration not stated)	-14	0.7	3	-1	18	·	3670
C=CCn1c2ccccc2c2nnc(SCC(=O)Nc3cc(C)on3)nc21	-16	-2.8	·	·	-4	-3	4964
COc1ccc([N+](=O)[O-])cc1NC(=O)C(C)OC(=O)C1c2ccccc2Oc2ccccc21 (configuration not stated)	-5	-5.5	9	-1	-3	3	1981
Cc1cccc(N2CCN(C(=O)c3ccc4nc(-c5ccco5)c(-c5ccco5)nc4c3)CC2C)c1 (configuration not stated)	-32	-8.2	-8	-8	-24	5	4807
COc1ccc(S(=O)(=O)N2CCOC23CCN(C(=O)c2ccc(Cl)cc2Cl)CC3)cc1	-16	3.8	13	7	-7	11	5420
COc1ccccc1NC(=S)NCc1ccc(F)cc1	-9	1.0	17	8	6	-3	4440
NC(=O)c1ccc(NC(=O)COC(=O)c2cc3c(s2)CCC3)cc1	-6	5.5	7	9	2	·	2783
CN(Cc1ccccc1)S(=O)(=O)c1ccc(OCC(=O)N2CCC(C(N)=O)CC2)cc1	-8	2.9	8	4	9	-5	4707
Cc1c(O)c(CN2CCCC2)cc2c3c(c(=O)oc12)CCC3	-32	4.9	4	1	-5	2	11342
Cc1cccc(N2CN=c3sc(=Cc4ccccn4)c(=O)n3C2)c1	·	4.7	1	10	2	·	·
CCSc1nnc(SCC(=O)c2c(N)n(C)c(=O)n(C)c2=O)s1	-19	6.3	11	7	3	·	5017
COc1ccc2c(c1)c(/C=C/c1cc[n+](C)cc1)cn2C	-16	1.4	2	-2	5	-13	8577
CCCn1ncc(CN2CCCC(C(=O)c3cccc(OC)c3)C2)c1C (configuration not stated)	-1	4.3	5	15	0	-5	2638
CC(C)Cn1c(SCC(=O)Nc2ncccn2)nc2ccccc21	-10	2.5	10	-1	-2	6	3383

Three records drawn at random from those above:
SMILES	PrP 5UTR inh	RN4220 kill	Mtb hypoxia rep	Mtb hypoxia rep growth	ugtP null kill	BJeLR lethal	Bead autofluor
NC(=O)c1ccc(NC(=O)COC(=O)c2cc3c(s2)CCC3)cc1	-6	5.5	7	9	2	·	2783
Cc1cccc(N2CN=c3sc(=Cc4ccccn4)c(=O)n3C2)c1	·	4.7	1	10	2	·	·
Cc1c(O)c(CN2CCCC2)cc2c3c(c(=O)oc12)CCC3	-32	4.9	4	1	-5	2	11342

(further entries)
SMILES	PrP 5UTR inh	RN4220 kill	Mtb hypoxia rep	Mtb hypoxia rep growth	ugtP null kill	BJeLR lethal	Bead autofluor
O=C(NN=Cc1cccc(NC(=O)c2ccc(Cl)cc2)c1)c1cccc(O)c1	·	3.2	10	8	10	·	·
O=C(CCc1nc(-c2ccccc2F)no1)NC1CCCCCC1	-5	-1.5	·	·	-7	·	5225
COc1ccc(NC(=S)NCc2ccco2)c(OC)c1	-14	0.6	·	·	1	6	3647
CCCCN1C(=O)c2ccc(C(=O)Nc3c(N)n(CCCC)c(=O)n(C)c3=O)cc2C1=O	-12	1.5	9	4	-6	10	?
N#CC1C(C#N)N2CCCN2C1c1ccc(Cl)cc1 (configuration not stated)	-15	-1.0	·	·	-2	2	4614
CCCn1c(SCc2cc(=O)oc3ccc4ccccc4c23)n[nH]c1=O	-35	2.2	1	4	-3	-4	4237
O=C(NC1CCCc2ccccc21)c1cccc(S(=O)(=O)N2CCN(c3ccccc3)CC2)c1 (configuration not stated)	-26	-5.8	9	10	-6	-13	8732
COc1ccc(-c2cn(CCO)nc2-c2ccc(OC)cc2)cc1	-19	-0.5	6	-1	11	-12	3584
CNS(=O)(=O)c1ccc(N=Cc2c(C)[nH]n(-c3ccc(C)cc3C)c2=O)cc1	-22	5.7	4	-1	6	0	4016
C/C(=N\NC(=S)NC1CCCCC1)c1c(F)cccc1F	-26	·	·	·	·	-1	4367
CCOc1ccc(OCCOC(=O)CNC(=O)c2ccc(Cl)cc2Cl)cc1	-26	0.8	-2	1	9	-2	5481
Cc1ccccc1Oc1ncccc1C(=O)/C(C#N)=C/N(C)C	-43	-0.9	-1	11	-4	-9	23141*
COc1ccc(C2CC(=O)Oc3c(C(CCN4CCN(c5ccccc5)CC4)c4ccc(N(C)C)cc4)c(OC)cc(OC)c32)cc1 (configuration not stated)	10	0.0	-4	12	-3	-4	4001
CCNC(=S)NN=Cc1ccco1	·	4.8	4	0	4	·	·
O=C(CCCN1C(=O)c2ccccc2C1=O)N1CCc2ccccc2C1	-12	4.5	13	7	5	0	9660
CC1CCC2CCCCC2N1C(=O)c1cc([N+](=O)[O-])cc([N+](=O)[O-])c1 (configuration not stated)	-29	3.2	18	17	14	-1	3500
COc1cccc(C(C(=O)NC2CCCC2)N(C(=O)c2ccco2)c2ccc(NC(C)=O)cc2)c1OC (configuration not stated)	-6	-0.5	2	14	8	15	5487
O=C(COc1ncnc2ccccc12)Nc1ccccc1[N+](=O)[O-]	-17	1.9	10	14	9	5	4425
COc1ccc(S(=O)(=O)Nc2ccccc2C)cc1C(=O)N1CCOCC1	-10	4.1	6	-8	5	-2	3567
CC(=O)c1ccc(-n2nncc2C)cc1	-2	8.2	5	2	0	-4	3269
c1ccc(-c2cnc(-c3ccccn3)nn2)cc1	-30	-15	5	1	-6	7	3552
CC(=O)Nc1ccc(OS(=O)(=O)c2cc(Cl)ccc2C)cc1	-20	9.9	14	7	-1	-1	4189
CCS(=O)(=O)NCCc1cc2c(OC)ccc(OC)c2[nH]c1=O	-22	-1.5	·	·	-22	-6	4801
CNC(=O)c1ccccc1S(=O)c1ccccc1COC(C)=O (configuration not stated)	-18	4.0	-9	4	13	1	4462
Cc1ccc(C(=O)CN(C(=O)c2ccc(Cl)cc2)N2C(=O)c3ccccc3C2=O)cc1	-21	-2.1	-5	-7	-3	-8	11608
Cc1nc2c(S(=O)(=O)c3ccccc3)cnn2c(C)c1C	-7	6.8	3	-7	6	2	3874
O=c1[nH]c(N/N=C\c2ccc(F)cc2)nc2ccccc12	-82	·	·	·	·	7	2006
